Compound activity from PubChem.
Ecoli rRNA inh: inhibits bacterial ribosomal RNA function over humanized ribosomes; E. coli WT GFP vs humanized-ribosome RFP mutants, fluorescence, 24 h; stronger effect = lower value; DMSO median 0, no signal -100; GFP signal change (wild-type ribosome), % (test concentration not listed); actives 1.6% (n = 350,000);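 active = significant combined selectivity score with lowered wild-type GFP, culture density cut under 30%, mutant RFP and density less affected; inactive = any of these conditions unmet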; note: one replicate is shown; some compounds called inactive have numbers as strong as hits
Ecoli rRNA inh OD600: recorded beside Ecoli rRNA inh, whose call it bears; OD600 change, %; measured here: OD600 growth;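 optical density of the mix in the first replicate; 0 = DMSO median and -100 = no signal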
Ecoli rRNA inh RFP: also measured in Ecoli rRNA inh; calls as there; RFP signal change, %; measured here: RFP humanized mutant strains;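 first replicate; 0 = DMSO median and -100 = no signal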
* hit, by the source's call; & = joins results of further samples. Not all compounds are listed; the hit share may differ from the screen's.

SMILES	Ecoli rRNA inh	Ecoli rRNA inh OD600	Ecoli rRNA inh RFP
Cc1ccc(S(=O)(=O)N(C)C[C@@H]2Oc3ccc(NC(=O)Nc4cccc5ccccc45)cc3C(=O)N([C@H](C)CO)C[C@@H]2C)cc1	1	4	-0.3
CC(C)NC(=O)N(C)C[C@H]1Oc2ccc(NS(=O)(=O)c3cccs3)cc2C(=O)N([C@@H](C)CO)C[C@@H]1C	6	7	-0.7
C[C@H](CO)N1C[C@H](C)[C@H](CN(C)C(=O)C2CCOCC2)Oc2ncc(C#Cc3cccc(F)c3)cc2C1=O	7	5	-1.4
Cc1ccc(S(=O)(=O)Nc2ccc3c(c2)CC(=O)N([C@H](C)CO)C[C@@H](C)[C@@H](CN(C)Cc2ccc(C(=O)O)cc2)O3)cc1	2	2	0.4
Cc1noc(C)c1NC(=O)N1C[C@H](O)COC[C@@H]2O[C@@H](CC(=O)N[C@H]3CCN(Cc4ccccc4)C3)CC[C@H]21	-2	5	1.1
C/C=C/c1ccc([C@@H]2[C@@H](CNC(=O)c3ccncc3)N(C(C)=O)[C@H]2CO)cc1	3	1	-0.5
C/C=C/c1ccc([C@H]2[C@H](CO)N(C(C)=O)[C@H]2CN(C)C(=O)CN(C)C)cc1	4	15	-1.8
O=C(c1cccc(F)c1)N1CCCCN2[C@@H](CO)[C@@H](c3ccc(-c4cccnc4)cc3)[C@@H]2C1	-1	-1	2.4
C[C@H]1CC=CC[C@H](c2ccccc2)NC(=O)[C@H](C)N(C)C(=O)c2ccccc2O1 (mixture of isomers)	-5	-6	1.5
COc1ccc2c3c([nH]c2c1)[C@H](CO)N(C)CC31CN(C(=O)c2ccccc2F)C1	-2	-13	-3.1
C[C@@H]1CN([C@@H](C)CO)S(=O)(=O)c2ccc(-c3ccccc3)cc2O[C@@H]1CN(C)Cc1ccccc1	-13	-41	3.4
C[C@H](CO)N1C[C@H](C)[C@H](CN(C)Cc2ccc3c(c2)OCO3)Oc2ncc(-c3cc4ccccc4o3)cc2C1=O	6	-6	15
CC(C)C#Cc1ccc([C@H]2[C@@H](CO)N3CCCCN(C(=O)NC(C)C)C[C@H]23)cc1	4	-11	1.9
CC(C)NC(=O)Nc1ccc2c(c1)CC(=O)N(C)C[C@H](C)[C@@H](CN(C)C(=O)OC(C)(C)C)O2	1	1	1.2
C[C@H](CO)N1C[C@H](C)[C@@H](CN(C)C(=O)c2ccccc2)OCCCC[C@H](C)Oc2ccc(N(C)C)cc2C1=O	-3	3	-1.0
Cc1ccc(CN(C)C[C@@H]2OCc3cn(nn3)CCCC(=O)N([C@H](C)CO)C[C@H]2C)cc1	1	3	-1.8
COc1ccc(S(=O)(=O)N(C)C[C@@H]2Oc3ccc(NC(=O)Nc4cccc5ccccc45)cc3C(=O)N([C@H](C)CO)C[C@H]2C)cc1	-1	-1	-0.9
C/C=C/c1ccc([C@@H]2[C@@H](CO)N(C(=O)CC)[C@H]2CNC(=O)c2ccncc2)cc1	-1	-1	0.1
Cc1ccc(S(=O)(=O)Nc2ccc3c(c2)C(=O)N([C@@H](C)CO)C[C@H](C)[C@H](CN(C)Cc2ccc(C(F)(F)F)cc2)O3)cc1	-2	-20	9.2
COCC(=O)N1C[C@@H](C)[C@H](OC)CN(C)C(=O)c2ccc(NC(=O)Nc3cccc(F)c3)cc2OC[C@@H]1C	-5	-2	1.0
C[C@H](CO)N1C[C@H](C)[C@@H](CN(C)C(=O)c2ccncc2)OCCCC[C@H](C)Oc2ccc(NC(=O)C3CCCCC3)cc2C1=O	-2	-3	-0.7
C[C@H](CO)N1C[C@H](C)[C@H](CN(C)C(=O)OCc2ccccc2)OCc2cn(nn2)CCCC1=O	-1	1	-0.2
O=C(C[C@@H]1CC[C@H](NC(=O)c2ccncc2)[C@H](CO)O1)Nc1ccc(-c2ccccc2)cc1	-6	2	0.0
CO[C@@H]1CN(C)C(=O)c2cc(NC(C)=O)ccc2OC[C@H](C)N(C(=O)C2CCCCC2)C[C@H]1C	1	-4	-1.9
COc1ccc(-c2ccc3n(c2=O)C[C@@H]2[C@@H](CO)[C@H](C(=O)N(C)C)[C@H]3N2C(=O)c2cnccn2)cc1	1	2	0.0

Gathered by group: those above containing a halogen.
SMILES	Ecoli rRNA inh	Ecoli rRNA inh OD600	Ecoli rRNA inh RFP
C[C@H](CO)N1C[C@H](C)[C@H](CN(C)C(=O)C2CCOCC2)Oc2ncc(C#Cc3cccc(F)c3)cc2C1=O	7	5	-1.4
O=C(c1cccc(F)c1)N1CCCCN2[C@@H](CO)[C@@H](c3ccc(-c4cccnc4)cc3)[C@@H]2C1	-1	-1	2.4
COc1ccc2c3c([nH]c2c1)[C@H](CO)N(C)CC31CN(C(=O)c2ccccc2F)C1	-2	-13	-3.1
Cc1ccc(S(=O)(=O)Nc2ccc3c(c2)C(=O)N([C@@H](C)CO)C[C@H](C)[C@H](CN(C)Cc2ccc(C(F)(F)F)cc2)O3)cc1	-2	-20	9.2
COCC(=O)N1C[C@@H](C)[C@H](OC)CN(C)C(=O)c2ccc(NC(=O)Nc3cccc(F)c3)cc2OC[C@@H]1C	-5	-2	1.0

The main list resumes; the two compounds before the break are reprinted first.
SMILES	Ecoli rRNA inh	Ecoli rRNA inh OD600	Ecoli rRNA inh RFP
CO[C@@H]1CN(C)C(=O)c2cc(NC(C)=O)ccc2OC[C@H](C)N(C(=O)C2CCCCC2)C[C@H]1C	1	-4	-1.9
COc1ccc(-c2ccc3n(c2=O)C[C@@H]2[C@@H](CO)[C@H](C(=O)N(C)C)[C@H]3N2C(=O)c2cnccn2)cc1	1	2	0.0
O=C(NC[C@@H]1[C@H](c2ccccc2)[C@H](CO)N1Cc1ccccn1)C1CCCC1	-2	0	4.5
CCCC#Cc1ccc([C@H]2[C@@H](CO)N3C(=O)CN(C(=O)c4cccc(F)c4)C[C@@H]23)cc1	10	5	4.0
Cc1nn(C)cc1NC(=O)C[C@H]1CC[C@H]2[C@H](COc3ccc(NC(=O)C4CCC4)cc3C(=O)N2C)O1	2	-1	-2.4
C[C@@H]1CN([C@@H](C)CO)C(=O)CCCn2cc(nn2)CO[C@H]1CN(C)Cc1ccc(Cl)c(Cl)c1	0	-2	2.0
COc1ccc(S(=O)(=O)N(C)C[C@@H]2Oc3ccc(NC(=O)NC(C)C)cc3C(=O)N([C@H](C)CO)C[C@H]2C)cc1	-2	-4	-0.5
CCCNC[C@H]1[C@@H](c2ccc(-c3cccc(C#N)c3)cc2)[C@@H](CO)N1C(C)=O	3	3	-1.4
CC(=O)N(C)C[C@H]1Oc2ccc(N(C)C)cc2C(=O)N(C)C[C@@H]1C	1	6	-1.9
CCCNC(=O)Nc1ccc2c(c1)C(=O)N(C)C[C@@H](OC)[C@@H](C)CN(CCC(F)(F)F)[C@H](C)CO2	-4	-6	1.8
C[C@@H]1CN([C@H](C)CO)C(=O)c2cc(-c3cccnc3)cnc2O[C@@H]1CN(C)Cc1ccccc1	5	16	-4.8
C[C@@H]1CN([C@H](C)CO)C(=O)c2cccc(NC(=O)Nc3ccc(C(F)(F)F)cc3)c2O[C@@H]1CN(C)S(=O)(=O)c1ccccc1	1	-11	2.3
CCCC(=O)Nc1ccc2c(c1)OC[C@H](C)N(CCc1ccccc1)C[C@@H](C)[C@H](OC)CN(C)C2=O	-3	-9	2.2
CCCNC(=O)Nc1ccc2c(c1)C(=O)N(C)C[C@@H](OC)[C@H](C)CN(CCC(F)(F)F)[C@H](C)CO2	-4	-2	1.6
C/C=C/c1cnc2c(c1)C(=O)N([C@@H](C)CO)C[C@H](C)[C@@H](CN(C)C(=O)C1CCC1)O2	1	2	2.7
CC(C)CC#Cc1ccc2c(c1)O[C@H](CN(C)C(=O)C1CC1)[C@H](C)CN([C@H](C)CO)S2(=O)=O	0	-24	11
CC(C)(C)S(=O)N1Cc2cc(C(=O)NCc3ccc(Oc4ccccc4)cc3)nc(-c3cccc(-c4cc5ccccc5o4)c3)c2[C@@H]1CCO (some centres not stated)	34	20	22
COc1ccc(S(=O)(=O)Nc2ccc3c(c2)C(=O)N([C@@H](C)CO)C[C@@H](C)[C@@H](CN(C)C(=O)Nc2ccc4c(c2)OCO4)O3)cc1	-2	-5	-1.2
CNC[C@@H]1OCCCC[C@H](C)Oc2ccc(NC(=O)Nc3c(C)noc3C)cc2C(=O)N([C@H](C)CO)C[C@H]1C	3	4	0.7
C[C@H]1CCCCO[C@H](CN(C)C(=O)C2CCCCC2)[C@@H](C)CN([C@@H](C)CO)C(=O)c2cc(N(C)C)ccc2O1	-7	-3	1.1
C[C@@H]1CCCCO[C@@H](CN(C)C(=O)Nc2ccc3c(c2)OCO3)[C@H](C)CN([C@H](C)CO)C(=O)c2cc(N(C)C)ccc2O1	-6	-3	-3.4
CCCC(=O)N1C[C@@H]2[C@H](c3ccccc31)[C@@H](CO)N2C(=O)CC1CC1	-5	4	0.7
C[C@@H]1CN([C@H](C)CO)C(=O)Cc2cc(NC(=O)Cn3cnnn3)ccc2O[C@H]1CN(C)C(=O)Nc1ccc(F)cc1	3	6	-2.9
C[C@@H]1CN([C@@H](C)CO)C(=O)Cc2cc(NC(=O)Cn3cnnn3)ccc2O[C@@H]1CN(C)C(=O)Nc1ccc(F)cc1	2	6	-0.4
CNC[C@H]1Oc2ncc(-c3ccc(OC)cc3)cc2C(=O)N([C@@H](C)CO)C[C@@H]1C	2	-6	-3.8
CCC(=O)N1[C@H](CN(C)C(C)=O)[C@@H](c2ccc(C3=CCCCC3)cc2)[C@@H]1CO	-2	-3	1.3
COCC(=O)N1C[C@H](C)[C@@H](OC)CN(C)C(=O)c2cc(NC(=O)c3cc(C)on3)ccc2OC[C@H]1C	2	2	-2.2

(continued)
SMILES	Ecoli rRNA inh	Ecoli rRNA inh OD600	Ecoli rRNA inh RFP
C[C@H]1CN([C@@H](C)CO)C(=O)c2cc(C#CC3CCCC3)cnc2O[C@@H]1CN(C)C(=O)c1ccncc1	1	3	0.2
CNC[C@@H]1Oc2c(N)cccc2C(=O)N([C@@H](C)CO)C[C@@H]1C	2	7	-0.2
CC(C)NC(=O)N1C[C@@H]2C(c3ccccc3)[C@H](C1)N2CC(F)(F)F (some centres not stated)	-1&-1	0&1	0.8&-0.2
COc1ccc2c3c([nH]c2c1)[C@@H](CO)N(C(=O)C1CCCCC1)CC31CCN(C)CC1	2	7	-4.9
C[C@@H]1CN([C@@H](C)CO)C(=O)c2cc(Br)cnc2O[C@@H]1CN(C)C(=O)C1CCC1	0	2	-1.2
CO[C@@H]1CN(C)C(=O)c2ccc(NC(=O)C3CCOCC3)cc2OC[C@@H](C)N(C)C[C@H]1C	3	13	-4.0
CCN(C[C@H]1[C@H](c2ccc(C3=CCCC3)cc2)[C@H](CO)N1C(C)=O)C(C)=O	2	-5	-0.6
C[C@@H]1CN([C@@H](C)CO)C(=O)c2cccc(NC(=O)Nc3ccc(C(F)(F)F)cc3)c2O[C@@H]1CN(C)Cc1ccc(C(=O)O)cc1	3	6	0.4
C[C@@H]1CN([C@H](C)CO)C(=O)c2cccc(NC(=O)Nc3ccccc3)c2O[C@H]1CN(C)S(=O)(=O)c1cccs1	-2	-11	0.6
C[C@@H]1CN([C@H](C)CO)C(=O)c2cc(NC(=O)Nc3ccc(F)cc3)ccc2O[C@@H]1CN(C)C(=O)Nc1ccc(C(F)(F)F)cc1	-4	-7	-4.0
N#C[C@H]1[C@@H](c2ccccc2-c2cccc(F)c2)[C@@H](CO)N1C(=O)NC1CCCCC1	-1	-26	-1.9
CCCNC(=O)NC[C@H]1[C@@H](c2ccc(C3=CCCC3)cc2)[C@H](CO)N1C(C)=O	-2	-2	1.3
C[C@H]1CN(C)C(=O)c2cccc(N(C)C)c2O[C@@H]1CN(C)C	0	5	-1.5
CCS(=O)(=O)N1CC(=O)N2[C@H](CO)[C@@H](c3ccc(C4=CCCCC4)cc3)[C@@H]2C1	2	-14	2.7
CC(C)NC(=O)Nc1cccc2c1O[C@@H](CN(C)S(=O)(=O)c1cccs1)[C@@H](C)CN([C@H](C)CO)C2=O	-4	4	0.9
COc1cccc(NC(=O)Nc2ccc3c(c2)OC[C@@H](C)N(CC2CC2)C[C@@H](C)[C@H](OC)CN(C)C3=O)c1	-1	-5	0.7
C[C@@H]1CN([C@@H](C)CO)S(=O)(=O)c2ccc(C#C[C@@H](C)O)cc2O[C@H]1CN(C)CC1CC1	3	3	-1.1
COc1ccc2c3c(n(C)c2c1)[C@H](CO)N(CC1CC1)CC31CCN(C(=O)CC2CC2)CC1	0	-1	-1.2
CO[C@@H]1CN(C)C(=O)c2cc(NS(=O)(=O)c3cn(C)cn3)ccc2OC[C@H](C)N(C)C[C@H]1C	1	2	-2.0
COc1ccc([C@@H]2C/C=C\C[C@@H](c3cccc(Cl)c3)NC(=O)[C@@H](c3ccccc3)CC(=O)N2)c(OC)c1	-1	-1	-2.0
C[C@@H]1CN([C@@H](C)CO)C(=O)c2cc(C3=CCCC3)cnc2O[C@H]1CN(C)C(=O)C1CC1	-2	12	0.7
Cc1noc(C)c1NC(=O)N(C)C[C@@H]1Oc2ccc(NC(=O)Cc3ccccc3)cc2CC(=O)N([C@@H](C)CO)C[C@H]1C	1	-9	-2.5
C[C@H](CO)N1C[C@H](C)[C@H](CN(C)C(=O)C2CC2)Oc2cc(C#CC(C)(C)O)ccc2S1(=O)=O	1	-3	-1.3
O=C(Cc1ccncc1)N1CC[C@@H]2[C@H](CO)Nc3ccc(Br)cc3[C@@H]21	4	7	1.2
COc1ccc(NC(=O)Nc2cccc3c2O[C@H](CN(C)Cc2ccc(Cl)c(Cl)c2)[C@@H](C)CN([C@@H](C)CO)C3=O)cc1	-5	-2	1.4
COc1ccc2c3c(n(C)c2c1)[C@H](CO)N(C(=O)C1CCOCC1)CC31CN(Cc2cccc(F)c2)C1	-2	-2	5.5
